# RGS16-Gao: modulators of RGS16 binding to Galphao, primary screen, biochemical, human proteins, multiplexed bead flow cytometry | Regulator of G-protein signaling 16 (Homo sapiens) + Guanine nucleotide-binding protein … | bead-based flow cytometry RGS16-Galphao binding, fluorescence; actives lie on both sides | binding response (% of control), % at 10 µM | AID 1441, 2008 | actives 0.38% (n = 220,000);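 active = below 25% or above 175%, edge rows of some plates excepted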;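 also: Galphao activated by GDP with aluminum fluoride before binding; 100% = wells without compound and 0% = beads without RGS; some results beyond the cut were filed as inactive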
# Target sequence (O15492 whole entry, looked up): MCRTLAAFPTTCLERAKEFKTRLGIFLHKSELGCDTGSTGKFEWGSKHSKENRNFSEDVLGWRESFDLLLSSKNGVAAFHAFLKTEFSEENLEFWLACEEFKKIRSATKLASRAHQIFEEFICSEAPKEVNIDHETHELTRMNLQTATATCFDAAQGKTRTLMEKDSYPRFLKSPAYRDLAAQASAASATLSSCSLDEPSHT
# Target sequence (P09471 whole entry, looked up): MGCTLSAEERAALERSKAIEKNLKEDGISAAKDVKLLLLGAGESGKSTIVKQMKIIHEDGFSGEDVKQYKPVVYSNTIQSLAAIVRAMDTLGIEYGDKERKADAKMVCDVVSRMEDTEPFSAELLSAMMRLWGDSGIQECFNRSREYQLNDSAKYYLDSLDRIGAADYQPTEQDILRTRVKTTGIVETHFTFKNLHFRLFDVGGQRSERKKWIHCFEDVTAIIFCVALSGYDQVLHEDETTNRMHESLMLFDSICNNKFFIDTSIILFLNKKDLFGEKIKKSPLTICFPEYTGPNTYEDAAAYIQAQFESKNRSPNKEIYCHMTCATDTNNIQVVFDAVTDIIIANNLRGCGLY
# HSV augment: enhancers of HSV replication in host cells, fold increase, host cell viability. HSV replication augmentation in cells. maximum fold increase. actives 0.005% (n = 220,000). AID 1956, 2009;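 active = peak rise of 1.5-fold or more in the series; inconclusive = self-fluorescent or not available for retest; tested in PC3 cells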;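 also: first round at 10 µM; read as green reporter fluorescence; hits show the peak of a series up to 25 µM; 1 = signal of infected wells without compound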
# GALR2 agonist: GALR2 receptor agonists, primary screen, cell-based; AID 803, 2007; Galanin receptor type 2 (Homo sapiens), O43603; activation, %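 (tested at 5 µM)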; GALR2-expressing cells, agonist activation read-out; actives 0.48% (n = 140,000);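 active = above mean plus 3 SD of all compounds, about 5% in these data, not always enough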;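 also: 0% = vehicle buffer wells and 100% = reference agonist at full effect; tested in CHO reporter cells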
# Target sequence (O43603 whole entry, looked up): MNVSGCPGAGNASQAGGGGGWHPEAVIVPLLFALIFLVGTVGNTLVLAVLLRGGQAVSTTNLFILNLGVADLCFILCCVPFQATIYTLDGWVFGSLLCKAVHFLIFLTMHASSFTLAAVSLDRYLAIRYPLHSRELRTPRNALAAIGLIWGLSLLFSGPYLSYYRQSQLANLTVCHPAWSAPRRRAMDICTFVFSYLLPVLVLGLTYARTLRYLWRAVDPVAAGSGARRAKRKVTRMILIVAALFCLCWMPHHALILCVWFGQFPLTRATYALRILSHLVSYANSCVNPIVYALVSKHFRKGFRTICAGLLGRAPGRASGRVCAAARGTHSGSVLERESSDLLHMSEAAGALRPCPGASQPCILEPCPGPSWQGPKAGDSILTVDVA
# PKD1 inh: inhibitors of human PKD1 kinase, biochemical, fluorescence polarization; Serine/threonine-protein kinase D1 (Homo sapiens), Q15139; PKD1 kinase fluorescence polarization assay; inhibition, %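 (about 10 µM by stock and volumes)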; actives 0.056% (n = 200,000);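 active = inhibition of 50% or more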;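 also: controls were vehicle for no effect and a reference inhibitor for full effect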
# Insulin prom inh: inhibitors of insulin promoter-driven GFP, primary screen, imaging, TRM-6 cells (human fetal islet line), eGFP reporter, cell count; inhibition, % at 2 µM; AID 1273, 2008; actives 0.9% (n = 130,000); reporter expression induced with tamoxifen;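 active = inhibition above the mean plus 3 SD, with well images judged a real hit on visual review, cut at about 60% in these data, passing the limit was not always enough; inconclusive = inhibition over the cutoff but images rejected on review; inactive = inhibition not above the cutoff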
# Insulin prom inh cell count: also measured in Insulin prom inh; calls as there; normalized cell count, %; measured here: cell count, toxicity; reference of the scale not given here;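 cells exposed to compound for 48 h; stained nuclei by imaging scaled within each plate; lower means fewer cells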
# HSV augment primary fold: second read-out of HSV augment, no call of its own (marks repeat the call); fold increase; compound at 10 µM; measured here: primary screen fold increase 10 uM; tested in PC3 cells;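 GFP signal in the first replicate; 1 = infected wells without compound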
# * = called active by the depositor; i = inactive; u = inconclusive; x = not tested or not shown; & = joins results of further samples.
SMILES,RGS16-Gao,HSV augment,HSV augment primary fold,GALR2 agonist,PKD1 inh,Insulin prom inh,Insulin prom inh cell count
O=C(CNCc1ccccc1Cl)Nc1ccc2c(c1)OCCO2,101,i,0.95,x,x,x,x
O=C(COC(=O)c1ccccn1)c1ccc(Br)cc1,103,i,0.99,-0.8,-10,x,x
COc1ccc(NC(=O)COC(=O)c2ccc(S(=O)(=O)N(C)c3ccccc3OC)cc2)c(OC)c1,101,i,0.71,x,2,x,x
O=C(Nc1ccc(F)cc1)C(c1ccccc1)N1CCN(S(=O)(=O)c2ccc3ccccc3c2)CC1 (centres undefined),90,i,1,-2.5,0,x,x
O=C(Nc1ccc(C(=O)O)cc1)/C(=C\c1ccc2c(c1)OCO2)NC(=O)c1ccc(Br)cc1,101,i,1,x,-8,x,x
COc1cc(/C=N/N=C2/NC(=O)C(Cc3ccc(F)cc3)S2)ccc1O (centres undefined),101,i,0.82,x,-5,x,x
CC(C)CCc1noc(CN2CCC(C(=O)N3CCOCC3)CC2)n1,98,i,0.98,x,x,x,x
COc1ccc(/C=C2/N=C3CCCCCN3C2=O)cc1OC,100,i,0.83,-2.5,2,6,136
O=C(N/C(=C\c1ccccc1)C(=O)N1CCCCCC1)c1ccccc1,107,i,0.97,x,4,x,x
CCNC(=S)N/N=C/c1cc(C)ccc1C,98,i,1.1,-0.5,6,-53,104
Cc1ccc(S(=O)(=O)c2c(N)n(Cc3ccco3)c3nc4ccccc4nc23)cc1C,96,i,1,1.0,1,-41,70
Cc1ccc(S(=O)(=O)c2nc(C)oc2NCc2ccccc2)cc1,107,i,0.85,-0.8,-7,51,139
COc1ccc(NC(=O)CN(C)C2CCCCC2)c([N+](=O)[O-])c1,112,i,1.1,0.9,-1,-6,72
CN(C)S(=O)(=O)c1ccc(N2CCCC2)c(C(=O)Nc2nc3ccc(F)cc3s2)c1,109,i,0.79,-1.9,5,-38,116
CCOC(=O)C1CCN(C(=O)CSc2nnc(-c3ccco3)n2-c2ccccc2)CC1,110,i,0.93,-2.9,-4,12,75
O=C(COc1ccccc1Br)NCc1ccco1,102,i,0.91,-1.1,-4,-239,64
CCCCNC(=O)N(CC)c1c(N)n(Cc2ccccc2)c(=O)[nH]c1=O,100,i,1,x,0,x,x
O=C(Nc1cnccn1)c1csc2ccccc12,101,i,0.94,-1.5,-4,8,110
CN(Cc1cnn(C)c1)Cc1nc(COc2ccccc2)no1,100,i,0.88,x,-9,x,x
O=C(OCC(=O)c1ccc[nH]1)c1ccc(S(=O)(=O)N2CCCCC2)cc1,99,i,0.89,-0.4,4,-47,61
Cc1nnc(SCC(=O)c2cc(C)n(C3CC3)c2C)s1,94,i,1.1,-1.6,-9,-38,47
CC(/C=C\c1cccnc1)=C/C(=O)O,100&98,i,1.1&0.96,0.0&-0.9,4&-2,23&18,92&126
COc1cc(OC)cc(C(=O)NCc2ccc3[nH]c(C)cc3c2)c1,102,i,1,x,7,33,142
C=CCn1c(SCC(=O)c2cccs2)nnc1-c1cccc(OC)c1,103,i,0.96,-0.4,-15,x,x
Cc1nnsc1C(=O)N(Cc1ccccc1)C(C)C,98,i,0.89,x,x,x,x
Cc1ccnc(NC(=O)CS(=O)(=O)Cc2ccccc2)c1,100,i,0.99,-3.5,-14,i,38
Cc1ccc(S(=O)(=O)CC(=O)c2ccc([N+](=O)[O-])cc2)cc1,94,i,1.1,x,x,x,x
Cc1cccc(N2CCN(C(=O)c3cccc(S(=O)(=O)N4CCc5ccccc5C4)c3)CC2C)c1 (centres undefined),106,i,1,0.3,12,x,x
Cc1cccc(-n2c(SCC(=O)Nc3ccc4c(c3)OCO4)nnc2-c2ccoc2C)c1,99,i,1.1,-0.2,-14,x,x
CCC(C(=O)NCc1ccco1)N(C(=O)CNS(=O)(=O)c1ccccc1)C1CCCCC1 (centres undefined),98,i,0.89,-3.1,-1,17,45
CCNC(=O)OCc1cn(-c2ccccc2)nn1,96,i,0.97,x,9,63,24
CCCC(=O)C1=C(SCC)CC(C)(C)C(C(=O)OC)C1=O (centres undefined),102,i,0.93,-0.7,-18,-12,60
Cc1ccccc1-c1nn2c(-c3ccccc3)nnc2s1,97,i,0.9,1.0,2,x,x
Cc1cc(C)c(C)c(S(=O)(=O)NC2CCN(Cc3ccccc3)CC2)c1C,97,i,0.77,x,-11,x,x
CCCNC(=O)c1ccccc1NC(=O)c1ccccc1N(C)S(C)(=O)=O,104,i,0.83,-2.4,-4,-310,58
COc1ccnc(Oc2ccccc2)c1C(=O)N/C=N/OCc1ccc(F)cc1Cl,111,i,0.93,-0.3,-12,35,107
CCN1CN(Cc2ccccc2)CNC1=S,97,i,0.92,-1.4,-12,x,x
Cc1cc(NC(=O)CSc2cc(Cl)ccc2Cl)n(-c2ccccc2)n1,92,i,1.1,-0.1,-2,x,x
Cc1ccc(S(=O)(=O)N2CCC(C(=O)N[C@@H](Cc3ccccc3)C(=O)O)CC2)cc1,22,i,0.79,-0.8,-3,47,88
Cc1ccc(C(=O)Oc2ccc(/C=N/NC(N)=O)cc2)cc1,99,i,0.93,x,-1,x,x
CCOC(=O)c1c(NC(=O)CN2C(=O)NC(C)(c3ccccc3)C2=O)sc(C)c1C (centres undefined),113,i,0.66,0.8,2,0,116
O=C(c1c[nH]c(C(=O)C(Cl)(Cl)Cl)c1)c1ccc(F)cc1Cl,101,i,0.68,x,-6,x,x
O=C(CCC1CCCN(C(=O)CCN2CCCCC2=O)C1)NCc1ccccc1F (centres undefined),101,i,0.96,x,5,30,79
CCCOc1ccc(-c2nc(=S)[nH][nH]2)cc1,97,i,0.87,-1.2,-8,43,85
Cc1ccc(/C=C2\SC(=S)N(CCC(=O)NNC(=O)c3cccnc3)C2=O)cc1,99,i,0.98,-1.2,11,x,x
Cc1ccc(SCc2[nH]nc3c2C(C(C)C)C(C#N)=C(N)O3)cc1 (centres undefined),99,i,0.94,-1.9,-3,-17,122
O=C(Nn1cnnc1)c1ccc(F)c(S(=O)(=O)N2CCCCC2)c1,104,i,0.86,-2.6,-9,36,52
CC(C(=O)N1CCOCC1)n1cc([N+](=O)[O-])cn1 (centres undefined),102,i,0.94,x,2,x,x
CCOc1cc(/C=N\NC(=O)c2ccc(NC(=O)C(C)(C)C)cc2)ccc1OC(=O)c1ccc(OC)cc1,114,i,1,-1.0,-4,-18,126
O=C(Cc1ccccc1)NCCSCc1ccc(Cl)cc1,98,i,1,-2.0,2,-7,148
Cc1cc(C(=O)COC(=O)c2cccnc2Cl)c(C)n1-c1c(C)n(C)n(-c2ccccc2)c1=O,117,i,0.99,x,1,-27,79
COc1ccc(/C(C)=N/NC(=O)CNC(=O)c2cccs2)cc1,113,i,1,x,0,-15,85
Cc1ccc(SC(C)C(=O)NCc2ccncc2)cc1 (centres undefined),100,i,0.94,x,5,x,x
Fc1ccc(N2CCN(c3nc(CN4CCOCC4)nc4scc(-c5ccccc5)c34)CC2)cc1,102,i,0.89,x,-3,x,x
CC(=O)C(CC(=O)N1CCCc2ccccc21)C(=O)Nc1ccc(F)cc1 (centres undefined),104,i,0.88,0.5,2,0,115
C=CCSc1nnc2c(n1)OC(C)=Nc1ccc(Br)cc1-2,99,i,0.98,x,0,x,x
Cc1ccc(-c2nn(C)c(=O)c3ccccc23)cc1CNC(=O)NC1CCCCC1,105,i,1,x,x,x,x
Fc1ccc(OCCn2cnc(Cl)c2Cl)cc1,93,i,0.91,x,x,x,x
Cc1ccc2sc(N(CCCN(C)C)C(=O)CN3C(=O)c4ccccc4C3=O)nc2c1C,101,i,0.96,x,-5,33,54
CCOc1ccc(NC(=S)NC(=O)/C=C/c2ccc(Br)cc2)c([N+](=O)[O-])c1,95,i,0.81,x,x,x,x
# More entries.
SMILES,RGS16-Gao,HSV augment,HSV augment primary fold,GALR2 agonist,PKD1 inh,Insulin prom inh,Insulin prom inh cell count
Cc1ccc(NC(=O)C(c2ccc(Cl)cc2)N2CCCCC2)cc1 (centres undefined),104,i,0.95,-0.4,13,x,x
CCOC(=O)c1cc(-c2ccccc2)n(CC(=O)NC(C)(C)C)c1C,96,i,1,x,-5,-130,29
CCCCN(CC)C(=O)c1ccc(-c2ccccc2)cc1,100,i,1,-0.3,-10,-3,103
O=C(O)c1ccc(/C=N/NC(=O)c2ccc(F)cc2)cc1,101,i,0.95,x,x,x,x
COc1cccc(C(=O)c2c(C)c(CCC#N)n3ccccc23)c1,98,i,1.2,x,-2,59,56
Cc1cc(NC(=O)CSc2nc3c(c(=O)n2Cc2ccccc2)SC(C)C3)no1 (centres undefined),103,i,0.92,x,x,x,x
CC(NC(=O)/C(C#N)=C1\N=C(NC(=O)c2cccs2)c2ccccc21)c1ccccc1 (centres undefined),96,u,x,-1.2,0,-79,128
COc1cccc(NC(=O)Cc2nnc(SCC(=O)NC(C)c3ccccc3)n2C)c1 (centres undefined),97,i,0.88,-0.3,2,-11,96
Cc1ccc(CC(=O)NCc2cccnc2)cc1,96,i,0.91,x,-6,x,x
O=C(O)/C=C/C(=O)Nc1cc(F)ccc1F,72,i,0.92,x,x,x,x
Cn1c(=O)c2cc3c(nc2n(C)c1=O)CC(c1ccccc1)CC3=O (centres undefined),98,i,0.95,x,x,x,x
O=C(Nc1ncc2c(n1)-c1ccccc1OC2)c1ccccc1Cl,99,i,0.79,-1.6,-16,2,88

# Already shown: entries from further up.
SMILES,RGS16-Gao,HSV augment,HSV augment primary fold,GALR2 agonist,PKD1 inh,Insulin prom inh,Insulin prom inh cell count
Cn1c(=O)c2cc3c(nc2n(C)c1=O)CC(c1ccccc1)CC3=O (centres undefined),98,i,0.95,x,x,x,x
O=C(Nc1ncc2c(n1)-c1ccccc1OC2)c1ccccc1Cl,99,i,0.79,-1.6,-16,2,88

# Continuation:
SMILES,RGS16-Gao,HSV augment,HSV augment primary fold,GALR2 agonist,PKD1 inh,Insulin prom inh,Insulin prom inh cell count
O=C(NCCc1c[nH]c2ccccc12)c1ccc([N+](=O)[O-])cc1,88,i,1.1,-1.3,3,x,x
COc1cccc(CN2CCN(CCc3ccccc3)C(CCO)C2)c1OC (centres undefined),96,i,0.96,x,3,20,132
CC(C)OCCCNC(=O)c1ccncc1,112,i,1.1,-0.7,-2,44,158
Cc1ccc(C(=O)N/C(=C\c2cccs2)C(=O)NCCc2ccccn2)cc1C,96,i,1,x,-3,-392,87
COc1ccccc1-n1c(SCC(=O)Nc2cc(C)on2)nc2c(c1=O)SCC2,108,i,0.94,x,-3,-61,97
COC(=O)C(CCSC)NC(=O)c1cc2c(n(-c3ccccc3)c1=O)CC(C)(C)CC2=O (centres undefined),93,i,1.1,-0.6,-1,-8,109
CCOC(=O)c1ccc(N2CCN(c3ccccc3F)CC2)c(NC(=O)Nc2cccc(OC)c2)c1,117,i,1,0.1,13,-8,142
O=C(O/N=C(\c1ccccc1)c1ccccn1)c1cccc2ccccc12,99,i,1,1.4,-6,-17,130
COc1ccc(Br)cc1C1CC(=O)N2CN(Cc3ccccc3)CSC2=C1C#N (centres undefined),86,i,1.1,-1.4,-8,x,x
Cc1ccc(NC(CNS(=O)(=O)c2ccc(Cl)cc2)c2ccccc2)cc1 (centres undefined),124,i,0.98,-0.3,8,-3,85
Cc1cc(C)c(S(=O)(=O)Nc2ccc3[nH]c(=O)[nH]c3c2)c(C)c1,98,i,0.99,x,6,x,x
Fc1cccc(/C=N/N=C/c2cccc(F)c2)c1,101,i,0.97,x,-6,x,x
CC/C(=N\O)c1c(O)c2c(n(-c3ccccc3)c1=O)CCCC2,109,i,0.91,-1.6,2,38,134
Clc1ccc(OCCCc2nc(-c3ccncc3)no2)c(Cl)c1,103,i,0.93,-4.5,-5,-94,57

# 5 of these compounds in another layout:
compound | RGS16-Gao | HSV augment | HSV augment primary fold | GALR2 agonist | PKD1 inh | Insulin prom inh | Insulin prom inh cell count
Fc1ccc(N2CCN(c3nc(CN4CCOCC4)nc4scc(-c5ccccc5)c34)CC2)cc1 | 102 | i | 0.89 | x | -3 | x | x
CC(=O)C(CC(=O)N1CCCc2ccccc21)C(=O)Nc1ccc(F)cc1 (centres undefined) | 104 | i | 0.88 | 0.5 | 2 | 0 | 115
C=CCSc1nnc2c(n1)OC(C)=Nc1ccc(Br)cc1-2 | 99 | i | 0.98 | x | 0 | x | x
Cc1ccc(-c2nn(C)c(=O)c3ccccc23)cc1CNC(=O)NC1CCCCC1 | 105 | i | 1 | x | x | x | x
Fc1ccc(OCCn2cnc(Cl)c2Cl)cc1 | 93 | i | 0.91 | x | x | x | x

# Screening results from PubChem.
